DUX4 txn inh: inhibitors of DUX4-driven ZSCAN4 reporter expression, primary screen, 293T cells, Gaussia and Italica luciferase. activity change, negative = inhibition, % (test concentration not listed). 293T-iDUX4 ZSCAN4-Gaussia luciferase reporter, 24 h; stronger effect = lower value. hit rate 0.8% among 37,000;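 active = -10% or lower and over 25 points stronger than a control reporter; inconclusive = -10% or lower with a smaller gap; inactive = above -10%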;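 also: 0% = median of neutral control wells and -100% = median of positive control wells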
DUX4 txn inh difference: second read-out of DUX4 txn inh, no call of its own (marks repeat the call); Gaussia minus Italica difference, %; measured here: selective DUX4 reporter inhibition;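 worked out from the two reporters; negative = selective loss of the DUX4 reporter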
DUX4 txn inh control: further read-out of DUX4 txn inh, marked with its call; activity change, negative = inhibition, %; measured here: Italica tet-on control reporter;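 0 = neutral control and -100 = positive control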
Starred values were filed as active, the others as inactive; ? = inconclusive; · = not tested or not shown; & = joins results of further samples. This is a subset, so the mix of outcomes need not match the whole.

item	compound	DUX4 txn inh	DUX4 txn inh difference	DUX4 txn inh control
1	Cc1ccccc1-c1cnc2c(c1)C(=O)N([C@H](C)CO)C[C@H](C)[C@@H](CN(C)C(=O)c1ccncc1)O2	2	3	-0.7
2	COc1ccccc1-c1cn(CC[C@@H]2CC[C@H](NC(=O)C3CCCCC3)[C@@H](CO)O2)nn1	5	8	-3.4
3	N#C[C@H]1[C@@H](c2ccc(C#CC3CCCCC3)cc2)[C@H](CO)N1C(=O)c1cccc(F)c1	-4	-3	-1.7
4	CCC(=O)N1CC[C@@H]2[C@H]1c1cc(-c3cccc(OC)c3)ccc1N(C)[C@@H]2CO	1	3	-2.1
5	O=C(Cc1ccncc1)NCC[C@@H]1CC[C@@H](NC(=O)Nc2cccc(F)c2)[C@H](CO)O1	0	-4	4.4
6	C/C=C/c1ccc([C@@H]2[C@@H](CO)N3C(=O)CN(S(=O)(=O)c4cccc(F)c4)C[C@H]23)cc1	-8	-4	-3.6
7	O=C(CN1CCOCC1)N1CC(=O)N2[C@H](C1)[C@H](c1ccc(C3=CCCCC3)cc1)[C@@H]2CO	6	1	4.9
8	C[C@H](CO)N1C[C@H](C)[C@@H](CN(C)C(=O)C2CCCCC2)OCCCC[C@H](C)Oc2ccc(NS(=O)(=O)c3ccccc3)cc2C1=O	0	-3	3.3
9	CO[C@@H]1CN(C)C(=O)c2cc(NC(=O)Nc3ccccc3Cl)ccc2OC[C@@H](C)N(C)C[C@H]1C	-5	-2	-2.9
10	C[C@@H]1CN([C@@H](C)CO)C(=O)c2ccccc2-c2ccccc2CO[C@H]1CN(C)S(=O)(=O)c1ccc(Cl)cc1	-4	-10	6.3
11	COc1ccc(NC(=O)N(C)C[C@H]2Oc3c(NC(=O)c4ccncc4)cccc3C(=O)N([C@@H](C)CO)C[C@@H]2C)cc1	-5	-5	-0.1
12	CCCC(=O)Nc1ccc2c(c1)OC[C@H](C)NC[C@H](C)[C@H](OC)CN(C)C2=O	1	2	-1.4

In the list so far, 2 have a Cl atom.
item	compound	DUX4 txn inh	DUX4 txn inh difference	DUX4 txn inh control
9	CO[C@@H]1CN(C)C(=O)c2cc(NC(=O)Nc3ccccc3Cl)ccc2OC[C@@H](C)N(C)C[C@H]1C	-5	-2	-2.9
10	C[C@@H]1CN([C@@H](C)CO)C(=O)c2ccccc2-c2ccccc2CO[C@H]1CN(C)S(=O)(=O)c1ccc(Cl)cc1	-4	-10	6.3

The listing continues:
item	compound	DUX4 txn inh	DUX4 txn inh difference	DUX4 txn inh control
13	Cc1noc(C)c1NC(=O)N(C)C[C@H]1Oc2ccc(NC(=O)Nc3ccc(C(F)(F)F)cc3)cc2C(=O)N([C@@H](C)CO)C[C@@H]1C	1	0	1.2
14	COc1cccc(S(=O)(=O)N2CC[C@@H]3[C@H]2c2cc(C#Cc4cccnc4)ccc2N[C@@H]3CO)c1	-6	-4	-1.4
15	O=C(C1CCCCC1)N1CC2(C1)[C@@H](c1ccccc1)[C@@H](CO)N2Cc1ccccc1F	0	11	-10
16	O=C(CN1CCOCC1)N1CC(=O)N2[C@H](CO)[C@H](c3ccc(/C=C/c4ccccc4)cc3)[C@@H]2C1	7	5	1.3
17	C[C@H](CO)N1C[C@H](C)[C@H](CN(C)S(=O)(=O)c2ccc(Oc3ccccc3)nc2)OCc2cn(nn2)CCCC1=O	-2	6	-8.2
18	Cc1ccc(S(=O)(=O)N[C@@H]2CC[C@@H](CCNC(=O)C3CCOCC3)O[C@@H]2CO)cc1	6	4	1.5
19	COc1cccc(S(=O)(=O)N2C[C@@H]3N[C@H](C2)C3c2ccc(-c3cccc(C)c3)cc2)c1 (stereo partly specified)	?	·	·
20	N#C[C@@H]1[C@H](c2ccc(-c3cccc(F)c3)cc2)[C@@H](CO)N1C(=O)CN1CCOCC1	1	2	-1.1
21	CCCNC(=O)C[C@@H]1CC[C@@H]2[C@H](COc3ccc(NC(=O)CC)cc3C(=O)N2C)O1	0	-2	1.2
22	CCCNC(=O)N1[C@@H]2c3ccc(-c4ccc(OC)cc4)c(=O)n3C[C@H]1[C@H](CO)[C@H]2C(=O)NC1CCC1	-3	1	-3.9
23	C[C@@H]1CN([C@@H](C)CO)C(=O)Cc2cc(NS(=O)(=O)c3ccc(Cl)cc3)ccc2O[C@@H]1CN(C)C(=O)Nc1ccc(C(F)(F)F)cc1	-7	-6	-1.6
24	C[C@@H]1CN([C@H](C)CO)C(=O)Cc2cc(NC(=O)CCC(F)(F)F)ccc2O[C@H]1CN(C)CC1CC1	3	1	2.0

One compound at a time (already shown).
`CCCNC(=O)N1[C@@H]2c3ccc(-c4ccc(OC)cc4)c(=O)n3C[C@H]1[C@H](CO)[C@H]2C(=O)NC1CCC1` reads DUX4 txn inh = -3; DUX4 txn inh difference = 1; DUX4 txn inh control = -3.9
`Cc1noc(C)c1NC(=O)N(C)C[C@H]1Oc2ccc(NC(=O)Nc3ccc(C(F)(F)F)cc3)cc2C(=O)N([C@@H](C)CO)C[C@@H]1C` reads DUX4 txn inh = 1; DUX4 txn inh difference = 0; DUX4 txn inh control = 1.2

Additional structures:
item	compound	DUX4 txn inh	DUX4 txn inh difference	DUX4 txn inh control
25	COc1ccc(-c2cccc(-c3nc(C(=O)NCC(F)(F)F)cc4c3[C@H](CCO)N([S@@](=O)C(C)(C)C)C4)c2)cc1	-4	1	-4.1
26	COc1cccc(NC(=O)N[C@H]2C=C[C@H](CC(=O)N3CCOCC3)O[C@@H]2CO)c1	0	5	-4.8
27	O=C(C[C@@H]1C=C[C@@H](NC(=O)CN2CCOCC2)[C@H](CO)O1)NCc1cccc(F)c1	-2	-4	2.1
28	CN(C)C(=O)c1cccc(-c2cccc(-c3nc(C(=O)N4CCCCC4)cc4c3[C@@H](CCO)N([S@](=O)C(C)(C)C)C4)c2)c1	0	-1	0.8
29	CS(=O)(=O)Nc1ccc2c(c1)[C@@H]1C[C@H](CC(=O)NCc3ccccn3)O[C@H](CO)[C@@H]1O2	1	1	-0.2
30	Cc1ccc(-c2cnc3c(c2)C(=O)N([C@@H](C)CO)C[C@@H](C)[C@@H](CN(C)C(=O)Cc2ccccc2)O3)cc1	2	1	1.2
31	C[C@H](NC(=O)C[C@@H]1C[C@@H]2c3cc(NS(C)(=O)=O)ccc3O[C@@H]2[C@H](CO)O1)c1ccccc1	0	-1	0.9
32	C[C@@H]1CN([C@H](C)CO)C(=O)c2c(c3ccccc3n2C)-c2ccccc2CO[C@H]1CN(C)S(=O)(=O)c1ccc(F)cc1	-29*	-28*	-1.2*
33	N#C[C@@H]1[C@H](c2ccccc2C2=CCCCC2)[C@H](CO)N1C(=O)NC1CCCC1	?	·	·
34	CN(C)CC(=O)N1[C@H](CO)[C@@H](c2ccccc2)C12CN(C(=O)c1ccc(F)cc1)C2	2	-2	4.5
35	N#C[C@@H]1[C@H](c2ccccc2C2=CCCCC2)[C@@H](CO)N1C(=O)C1CCOCC1	4	-9	13
36	COCC#Cc1ccc([C@H]2[C@H](CO)N3C(=O)CN(C(=O)CN4CCOCC4)C[C@@H]23)cc1	10	2	7.6
37	COCCNC(=O)C[C@@H]1CC[C@H]2[C@@H](COc3ccc(NC(=O)c4cnccn4)cc3C(=O)N2C)O1	-2	-4	2.3
38	COCC(=O)Nc1ccc2c(c1)C(=O)N(C)[C@@H]1CC[C@H](CC(=O)NCCCN(C)C)O[C@H]1CO2	-5	-7	2.5
39	O=C(C[C@@H]1C[C@@H]2c3cc(NC(=O)Nc4ccccc4F)ccc3O[C@@H]2[C@H](CO)O1)NC1CCCCC1	1	-7	7.9
40	C[C@@H]1CCCCO[C@H](CN(C)C(=O)CCCN(C)C)[C@H](C)CN([C@H](C)CO)C(=O)c2cc(NC(=O)c3ccccc3)ccc2O1	1	0	1.2
41	CCCNC(=O)N1C[C@H]2[C@@H](c3ccccc31)[C@@H](CO)N2Cc1cccc(OC)c1	-3	-2	-0.9
42	CO[C@H]1CN(C)C(=O)c2cc(NS(=O)(=O)CC(F)(F)F)ccc2OC[C@H](C)NC[C@H]1C	5	0	4.8
43	CCCC(=O)Nc1ccc2c(c1)OC[C@@H](C)N(C(=O)CN(C)C)C[C@H](C)[C@H](OC)CN(C)C2=O	1	-2	2.6
44	COc1ccccc1CNC(=O)C[C@H]1C[C@@H]2c3cc(NC(=O)CN(C)C)ccc3O[C@@H]2[C@H](CO)O1	-1	0	-1.8
45	C[C@H]1CN([C@@H](C)CO)C(=O)c2c(c3ccccc3n2C)-c2ccccc2CO[C@H]1CN(C)Cc1ccc(O)cc1	5	4	1.5
46	Cc1ccccc1S(=O)(=O)N1C[C@H](O)COC[C@@H]2O[C@@H](CC(=O)N3CCCCC3)CC[C@H]21	6	1	5.7
47	NCC[C@H]1CC[C@@H](NC(=O)Cc2ccncc2)[C@H](CO)O1	-1	-6	4.6
48	COc1ccccc1CNC(=O)C[C@H]1CC[C@@H]2[C@H](COC[C@@H](O)CN2C(=O)Nc2ccc(Cl)cc2)O1	5	-4	8.9
49	C[C@H]1CN([C@@H](C)CO)C(=O)Cc2cc(NS(=O)(=O)c3ccc(F)cc3)ccc2O[C@H]1CN(C)Cc1ccncc1	2	2	-0.7
50	COc1ccc2c3c(n(C)c2c1)[C@H](CO)N(C(=O)c1ccc(F)cc1)CC31CN(CC2CCOCC2)C1	5	-10	15
51	CCCNC(=O)N1CC2(CCN(S(=O)(=O)CC)CC2)c2c(n(C)c3cc(OC)ccc23)[C@@H]1CO	12	8	4.0
52	C[C@@H]1CN([C@H](C)CO)C(=O)c2ccccc2-c2ccccc2CO[C@H]1CN(C)C(=O)CCC(F)(F)F	-1	-8	6.3
53	C[C@H](CO)N1C[C@H](C)[C@@H](CN(C)S(=O)(=O)c2cccs2)Oc2ccc(N(C)C)cc2C1=O	2	2	0.5
54	CO[C@@H]1CN(C)C(=O)c2ccc(NS(C)(=O)=O)cc2OC[C@@H](C)N(Cc2ccccn2)C[C@H]1C	2	2	0.4
55	CC(C)CC#Cc1cnc2c(c1)C(=O)N([C@H](C)CO)C[C@H](C)[C@@H](CN(C)C(=O)CC1CC1)O2	0	5	-4.8
56	COc1cccc(NC(=O)N[C@H]2C=C[C@H](CC(=O)NCc3ccncn3)O[C@@H]2CO)c1	0	1	-1.4
57	CN(C)C(=O)c1cccc(-c2ccc(C3[C@@H]4CN(Cc5cncnc5)C[C@H]3N4)cc2)c1 (stereo partly specified)	14&7	1&-4	13&11
58	CO[C@H]1CN(C)C(=O)c2cc(NC(=O)Cc3ccccc3)ccc2OC[C@H](C)N(C(=O)c2ccccc2F)C[C@H]1C	-4	-3	-1.3
59	O=C(C[C@@H]1CC[C@@H]2NC[C@@H](O)COC[C@H]2O1)Nc1ccccc1	7	5	2.3
60	CCS(=O)(=O)N1CCC2(CC1)CN(S(=O)(=O)c1cccc(OC)c1)[C@H](CO)c1[nH]c3cc(OC)ccc3c12	?	·	·
61	COc1ccc2c3c(n(C)c2c1)[C@@H](CO)N(S(C)(=O)=O)CC31CCN(Cc2nccs2)CC1	8	2	6.2
62	C[C@@H]1CCCCO[C@H](CN(C)C(=O)NC2CCCCC2)[C@@H](C)CN([C@@H](C)CO)C(=O)c2cc(N(C)C)ccc2O1	5	2	3.2
63	O=C(C[C@H]1C[C@H]2c3cc(NC(=O)Nc4ccccc4F)ccc3O[C@H]2[C@H](CO)O1)NCc1ccc2c(c1)OCO2	-8	-11	3.6
64	COCC(=O)N1[C@H](CO)[C@@H](c2ccccc2)C12CN(C(=O)NC1CCCC1)C2	16	12	4.0
65	Cc1ccccc1S(=O)(=O)N(C)C[C@@H]1OCc2ccccc2-c2ccccc2C(=O)N([C@H](C)CO)C[C@@H]1C	?	·	·
66	COc1ccc2c3c(n(C)c2c1)[C@H](CO)N(C(C)=O)CC31CCN(Cc2cccnc2)CC1	17	2	15
67	CO[C@H]1CN(C)C(=O)c2cc(NC(=O)C3CCOCC3)ccc2OC[C@H](C)N(C(C)=O)C[C@H]1C	2	1	0.8
68	OC[C@@H]1[C@H](c2ccccc2)C2(CN(Cc3ccccc3)C2)N1Cc1ccncc1	?	·	·
69	O=C(c1ccncc1)N1C[C@@H]2[C@H](c3ccccc31)[C@@H](CO)N2Cc1ccc(F)cc1	3	-1	4.2
70	CCCN(C)C[C@H]1OCCCC[C@@H](C)Oc2ccc(NC(=O)c3ccncc3)cc2C(=O)N([C@H](C)CO)C[C@@H]1C	6	-1	7.0
